Screening results as filed in PubChem BioAssay.
PKD1 kinase inh: blocks activity of human protein kinase D1. Q15139. PKD1 kinase fluorescence polarization assay. inhibition, %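 (about 10 µM by stock and volumes)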. hit rate 0.056% among 200,000. AID 797;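 active = inhibition of 50% or more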;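 also: controls were vehicle for no effect and a reference inhibitor for full effect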
Target sequence (Q15139 whole entry, looked up): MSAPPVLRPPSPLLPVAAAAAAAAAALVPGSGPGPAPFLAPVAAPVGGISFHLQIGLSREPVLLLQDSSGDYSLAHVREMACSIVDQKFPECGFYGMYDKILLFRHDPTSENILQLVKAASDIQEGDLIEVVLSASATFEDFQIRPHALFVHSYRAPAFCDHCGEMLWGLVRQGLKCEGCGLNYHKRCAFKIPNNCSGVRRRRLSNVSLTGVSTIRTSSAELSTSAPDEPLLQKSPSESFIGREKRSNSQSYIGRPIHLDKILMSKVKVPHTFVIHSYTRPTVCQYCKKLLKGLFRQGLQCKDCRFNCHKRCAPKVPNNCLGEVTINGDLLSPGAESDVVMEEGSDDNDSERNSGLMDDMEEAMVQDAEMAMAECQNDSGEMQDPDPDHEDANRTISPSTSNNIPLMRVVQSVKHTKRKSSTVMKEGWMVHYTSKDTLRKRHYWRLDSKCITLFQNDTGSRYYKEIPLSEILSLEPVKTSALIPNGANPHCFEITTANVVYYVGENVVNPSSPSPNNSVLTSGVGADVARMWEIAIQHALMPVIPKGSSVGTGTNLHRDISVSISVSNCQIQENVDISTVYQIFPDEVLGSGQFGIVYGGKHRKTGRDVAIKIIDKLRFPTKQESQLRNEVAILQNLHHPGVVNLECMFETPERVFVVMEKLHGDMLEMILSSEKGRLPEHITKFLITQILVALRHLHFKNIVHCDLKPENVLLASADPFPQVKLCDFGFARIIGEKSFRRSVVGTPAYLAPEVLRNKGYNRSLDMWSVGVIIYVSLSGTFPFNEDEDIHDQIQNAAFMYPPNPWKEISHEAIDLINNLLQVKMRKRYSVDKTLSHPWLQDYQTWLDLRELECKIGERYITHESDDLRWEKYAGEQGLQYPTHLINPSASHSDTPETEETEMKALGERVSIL
INS promoter inh: TRM-6 insulin promoter activity inhibition. TRM-6 cells (human fetal islet line), insulin promoter-eGFP reporter, imaging; reporter expression induced with tamoxifen. inhibition, % at 2 µM. hit rate 0.9% among 130,000. AID 1273;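 active = inhibition above the mean plus 3 SD, with well images judged a real hit on visual review, cut at about 60% in these data, passing the limit was not always enough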
HSV augment: HSV replication enhancement; HSV replication augmentation in cells, fold increase; maximum fold increase; hit rate 0.005% among 220,000; AID 1956;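 active = peak rise of 1.5-fold or more in the series; tested in PC3 cells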;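 also: first round at 10 µM; read as green reporter fluorescence; hits show the peak of a series up to 25 µM; 1 = signal of infected wells without compound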
RGS16-Gao HTS: modulates binding between human RGS16 and Galphao | binding response (% of control), % at 10 µM | hit rate 0.38% among 220,000 | bead-based flow cytometry RGS16-Galphao binding, fluorescence; actives lie on both sides | O15492+P09471 | AID 1441;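 active = below 25% or above 175%, edge rows of some plates excepted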;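 also: Galphao activated by GDP with aluminum fluoride before binding; 100% = wells without compound and 0% = beads without RGS; some results beyond the cut were filed as inactive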
GALR2 agonist: agonists of human galanin receptor 2 (GALR2); GALR2-expressing cells, agonist activation read-out; activation, %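 (tested at 5 µM)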; hit rate 0.48% among 140,000;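 active = above mean plus 3 SD of all compounds, about 5% in these data, not always enough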;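 also: 0% = vehicle buffer wells and 100% = reference agonist at full effect; tested in CHO reporter cells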
INS promoter inh cell count: further read-out of INS promoter inh, marked with its call; normalized cell count, %; measured here: cell count, toxicity; reference of the scale not given here;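 cells exposed to compound for 48 h; stained nuclei by imaging scaled within each plate; lower means fewer cells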
HSV augment primary fold: recorded beside HSV augment, whose call it bears; fold increase; compound at 10 µM; measured here: primary screen fold increase 10 uM; tested in PC3 cells;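 GFP signal in the first replicate; 1 = infected wells without compound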
* = called active by the depositor; i = inactive; . = no result given; & = joins results of further samples. Only part of the results is shown; count on the stated rates, not on these rows.

Field names: A = PKD1 kinase inh; B = INS promoter inh; C = INS promoter inh cell count; D = HSV augment; E = HSV augment primary fold; F = RGS16-Gao HTS; G = GALR2 agonist
C1COC(NC(C2CC2)C2CC2)=N1
  A: -3	B: 9	C: 139	D: i	E: 0.84	F: 101	G: -0.9

CNCCCN1c2ccccc2CCc2ccccc21
  A: 0	B: -9	C: 133	D: i	E: 0.71	F: 113	G: -0.2

Cc1ccc(N(CC2=NCCN2)c2cccc(O)c2)cc1
  A: -8&-1&6	B: -18&5&0	C: 110&61&48	D: i	E: 0.95&0.82&0.79	F: 100&106&113	G: -0.5&-0.8&-0.7

CN(C)CCCC1(c2ccc(F)cc2)OCc2cc(C#N)ccc21 (stereo not drawn)
  A: 3	B: -45	C: 160	D: i	E: 1	F: 101&94	G: -0.6

CC(=O)Nc1ccc(CC(=O)O)cc1
  A: .	B: .	C: .	D: i	E: 0.93	F: 99	G: .

CC(=O)CCCCn1c(=O)c2c(ncn2C)n(C)c1=O
  A: 5	B: 3	C: 82	D: i	E: 0.94	F: 97&96	G: 0.3

O=C(O)c1cccnc1Nc1cccc(C(F)(F)F)c1
  A: -9	B: 27	C: 98	D: i	E: 0.92	F: 107	G: -1.1

CCn1cc(C(=O)O)c(=O)c2cnc(N3CCNCC3)nc21
  A: -6	B: 5	C: 137	D: i	E: 0.75	F: 103	G: -1.4

CCCCCC(=O)O[C@]1(C(C)=O)CC[C@H]2[C@@H]3CCC4=CC(=O)CC[C@]4(C)[C@H]3CC[C@@]21C
  A: 4	B: 43	C: 105	D: i	E: 0.9	F: 99	G: 2.1

O=c1oc2c(O)c(O)cc3c(=O)oc4c(O)c(O)cc1c4c23
  A: 12	B: -29	C: 78	D: .	E: .	F: 80	G: 0.4

COc1ccc(C[C@H]2COC(=O)[C@@H]2Cc2ccc(OC3OC(CO)C(O)C(O)C3O)c(OC)c2)cc1OC (stereo partly drawn)
  A: -15	B: 35	C: 99	D: i	E: 1.1	F: 105	G: -1.3

COc1ccc(C2CNC(=O)C2)cc1OC1CCCC1 (stereo not drawn)
  A: -2	B: -18	C: 94	D: i	E: 1	F: 107&108&92	G: 0.6

C=CC[n+]1ccc(/C=C2\C=Cc3cc(C)ccc3N2CC)c2ccccc21
  A: -4	B: .	C: .	D: i	E: 0.56	F: 99	G: .

C/C=C/C(=O)N(CC)c1ccccc1C
  A: .	B: .	C: .	D: i	E: 0.65	F: 93	G: .

O=C(O)CCC(=O)c1ccc(-c2ccccc2)cc1
  A: -17	B: 23	C: 128	D: i	E: 0.8	F: 101	G: -0.6

CCCCNc1ccc(C(=O)OCCN(C)C)cc1
  A: -26	B: 14	C: 138	D: i	E: 0.94	F: 102	G: -1.3

CCC(NC(C)C)C(O)c1ccc(O)c2[nH]c(=O)ccc12 (stereo not drawn)
  A: -2	B: 0	C: 119	D: i	E: 0.75	F: 102	G: -0.8

Cc1cccc2c1NC(=O)C2(c1ccc(O)cc1)c1ccc(O)cc1
  A: 1	B: -31	C: 97	D: i	E: 0.6	F: 103	G: -4.9

CC(C)=CCOc1c2ccoc2cc2oc(=O)ccc12
  A: -6	B: 57	C: 136	D: i	E: 1.1	F: 99	G: 0.7

CC1Cc2ccccc2N1NC(=O)c1ccc(Cl)c(S(N)(=O)=O)c1 (stereo not drawn)
  A: -2	B: 23	C: 146	D: i	E: 0.88	F: 102	G: -0.8

N#Cc1ccc(C(c2ccc(C#N)cc2)n2cncn2)cc1
  A: .	B: .	C: .	D: i	E: 0.82	F: 105	G: .

Cc1cncn1CCc1nc2c3ccccc3nc(SCC(=O)Nc3cccc(Cl)c3)n2n1
  A: 2	B: .	C: .	D: i	E: 0.5	F: 82	G: 2.5

CN1CCCN=C1COC(=O)C(O)(c1ccccc1)C1CCCCC1 (stereo not drawn)
  A: -14	B: -19	C: 177	D: i	E: 0.89	F: 101	G: -1.7

CCCc1nc(C(C)(C)O)c(C(=O)O)n1Cc1ccc(-c2ccccc2-c2nn[nH]n2)cc1
  A: .	B: .	C: .	D: i	E: 1.1	F: 100	G: .

C/C=C(/C)C(=O)OC(C)(C)[C@@H]1Cc2c(ccc3ccc(=O)oc23)O1
  A: 0	B: 14	C: 111	D: i	E: 1	F: 101	G: -0.7

Eight compounds from above, sorted by molar mass, low to high.
Field names: A = PKD1 kinase inh; B = INS promoter inh; C = INS promoter inh cell count; D = HSV augment; E = HSV augment primary fold; F = RGS16-Gao HTS; G = GALR2 agonist
CCCCNc1ccc(C(=O)OCCN(C)C)cc1
  A: -26	B: 14	C: 138	D: i	E: 0.94	F: 102	G: -1.3

CC(=O)CCCCn1c(=O)c2c(ncn2C)n(C)c1=O
  A: 5	B: 3	C: 82	D: i	E: 0.94	F: 97&96	G: 0.3

Cc1ccc(N(CC2=NCCN2)c2cccc(O)c2)cc1
  A: -8&-1&6	B: -18&5&0	C: 110&61&48	D: i	E: 0.95&0.82&0.79	F: 100&106&113	G: -0.5&-0.8&-0.7

O=C(O)c1cccnc1Nc1cccc(C(F)(F)F)c1
  A: -9	B: 27	C: 98	D: i	E: 0.92	F: 107	G: -1.1

CCC(NC(C)C)C(O)c1ccc(O)c2[nH]c(=O)ccc12 (stereo not drawn)
  A: -2	B: 0	C: 119	D: i	E: 0.75	F: 102	G: -0.8

O=c1oc2c(O)c(O)cc3c(=O)oc4c(O)c(O)cc1c4c23
  A: 12	B: -29	C: 78	D: .	E: .	F: 80	G: 0.4

CCn1cc(C(=O)O)c(=O)c2cnc(N3CCNCC3)nc21
  A: -6	B: 5	C: 137	D: i	E: 0.75	F: 103	G: -1.4

CN(C)CCCC1(c2ccc(F)cc2)OCc2cc(C#N)ccc21 (stereo not drawn)
  A: 3	B: -45	C: 160	D: i	E: 1	F: 101&94	G: -0.6
